Compound activity: PubChem, National Center for Advancing Translational Sciences (NCATS)
D2 potentiator – human D2 receptor positive allosteric modulation; P14416; potentiation, % (test concentration not listed); DiscoveRx D2 beta-arrestin cells, luminescence, 90 min; 100% = 57 uM dopamine signal; 360,000 tested, 0.23% active; active = potentiation of 50% or more; inconclusive = 30% to 50%; inactive = 30% or less;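 note: compound concentration not given in the record; tested on top of an EC20 dose of dopamine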
Target sequence (P14416 whole entry, looked up): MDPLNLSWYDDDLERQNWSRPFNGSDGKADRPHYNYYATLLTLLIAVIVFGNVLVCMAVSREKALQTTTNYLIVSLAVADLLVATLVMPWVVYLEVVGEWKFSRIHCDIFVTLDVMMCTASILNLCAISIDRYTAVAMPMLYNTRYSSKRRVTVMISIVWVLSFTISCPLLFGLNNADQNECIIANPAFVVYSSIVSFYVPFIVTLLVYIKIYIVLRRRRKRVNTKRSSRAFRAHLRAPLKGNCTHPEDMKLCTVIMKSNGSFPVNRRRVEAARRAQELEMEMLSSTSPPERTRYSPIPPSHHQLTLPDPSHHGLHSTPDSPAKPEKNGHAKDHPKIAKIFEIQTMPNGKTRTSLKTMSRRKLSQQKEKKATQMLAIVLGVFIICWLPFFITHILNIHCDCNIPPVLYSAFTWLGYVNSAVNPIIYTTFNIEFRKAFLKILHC
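D2 cells co-treated with compound plus 50 nM dopamine (EC20) for 90 min at 37 deg C to detect potentiation. Beta-arrestin recruitment was read as enzyme-fragment luminescence after 1 h at ambient temperature. Full response was set by 57 uM dopamine.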
D2 agonist – activates the human D2 dopamine receptor; activation, % (no concentration beside the values); P14416; 360,000 tested, 0.084% active; DiscoveRx PathHunter D2 beta-arrestin, luminescence, 90 min; 100% = 57 uM dopamine signal; in the data active = activation above about 40%; inconclusive = about 15% to 40%; inactive = below about 15%; note: compound concentration not given in the record; the text of the record calls up to 30% inactive
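Agonist mode: compounds alone added to overnight-plated D2 PathHunter cells for 90 min at 37 C, with 57 uM final dopamine (EC100) defining full response. Beta-arrestin recruitment detected by chemiluminescent reagent, read after 1 h at ambient temperature.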
PINK1 modulator – PINK1 expression modulation; PINK1 immunofluorescence, high-content cytometry, 24 h; AID 624263; Potency, µM (highest dose often 76.6 µM), for inactives: at the highest dose activation (PINK1 increase), most hits filed as activators; 410,000 tested, 0.2% active; active = well fitted activation curve with a large enough effect; inconclusive = small, poorly fitted or top-dose-only effect; inactive = flat fitted curve, though single readings scatter; cell line not stated here;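 note: potency is the fitted concentration of half-maximal effect; % of control where 0% means no effect; nearly all actives have a fitted effect of over 65% in size; a mitochondrial uncoupler was the plate control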
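Decision-based qHTS: stable cells, 24 h exposure to five compound concentrations, CCCP as control. Fixed cells stained for PINK1 plus nuclear, mitochondrial and cell markers, cytometer read.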
TRPML1 ag – agonists of human TRPML1 channel; TRPML1-expressing cells, Ca2+ dye fluorescence, FDSS; host cell line not named in the record; reference of the full effect not given here; AID 624414; 410,000 tested, 0.12% active; activation, % (no concentration beside the values); in the data active = activation above about 50%; inconclusive = about 30% to 50%; inactive = below about 30%; note: 0% is about no effect; the text of the record puts the active cut at 80%
Target sequence (Q9GZU1 whole entry, looked up): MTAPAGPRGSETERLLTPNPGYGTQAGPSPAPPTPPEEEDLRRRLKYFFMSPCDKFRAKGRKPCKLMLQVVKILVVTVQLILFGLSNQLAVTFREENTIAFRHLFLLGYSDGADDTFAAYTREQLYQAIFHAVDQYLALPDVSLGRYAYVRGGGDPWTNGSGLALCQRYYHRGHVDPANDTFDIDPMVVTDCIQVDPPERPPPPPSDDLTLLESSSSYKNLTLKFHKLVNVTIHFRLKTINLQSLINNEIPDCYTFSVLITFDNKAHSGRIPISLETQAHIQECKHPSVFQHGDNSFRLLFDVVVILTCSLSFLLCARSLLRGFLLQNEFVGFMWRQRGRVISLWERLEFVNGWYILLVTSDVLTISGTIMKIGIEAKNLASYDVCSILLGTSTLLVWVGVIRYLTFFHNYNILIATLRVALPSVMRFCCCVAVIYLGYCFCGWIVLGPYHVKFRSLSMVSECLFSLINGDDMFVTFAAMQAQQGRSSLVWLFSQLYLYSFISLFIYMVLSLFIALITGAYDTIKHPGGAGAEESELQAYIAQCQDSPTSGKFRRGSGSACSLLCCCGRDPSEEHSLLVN
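Kinetic FDSS Ca2+ read in Tet-induced TRPML1-DL cells (ABD Ca8 dye plus quencher, 45-90 min RT loading): baseline, then compound, then 110 s agonist window; EC80 agonist 54-4 at 4uM final added afterwards for a 110 s antagonist window.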
TRPML1 inh – inhibitors of human TRPML1 channel | Q9GZU1 | TRPML1-inducible cells, Ca2+ dye fluorescence, FDSS; stronger effect = lower value; inhibition of EC80 agonist-evoked calcium signal | activity change, negative = inhibition, % (concentration not given with the values) | 390,000 tested, 0.02% active | AID 624415; in the data active means activity change below about -50%; inconclusive means about -30% to -50%; inactive means above about -30%;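 note: stimulus is agonist 54-4 at its EC80 concentration; % is set by controls: 0 for no effect and ±100 for the full control effect; compound concentration not given in the record; the text of the record puts the active cut at -80%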
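Tet-induced TRPML1-DL cells loaded with Ca8 no-wash calcium dye were read kinetically on FDSS. Compound addition was followed by EC80 agonist 54-4 (4 uM final); inhibition was read over 110 s.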
Six1-Eya2 inh – Six1/Eya2 interaction inhibition; AID 651725; AlphaScreen GST-Six1/His-Eya2 binding, biochemical; stronger effect = lower value; control for the full effect not named in the record; activity change, % (concentration not given with the values); 360,000 tested, 0.56% active; Q15475+O00167; in the data active = activity change below about -65%; inconclusive = about -30% to -65%; inactive = above about -30%; note: % is set by controls: 0 for no effect and ±100 for the full control effect
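GST-Six1 + His-Eya2 (5X stock: 250/500 nM); Tris pH 8.0, 300 mM NaCl, 0.05% BSA, 0.02% Tween 20; GSH donor/Ni acceptor beads; 1 h 37 °C dark; AlphaScreen readout.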
Numbers without * were called inactive; ? = inconclusive; nt = not tested or not shown; [ ] = another dose, or the depositor's remark. An unsorted share of the library. About 1% of those tested had a hit in this group.

SMILES | D2 potentiator | D2 agonist | PINK1 modulator | TRPML1 ag | TRPML1 inh | Six1-Eya2 inh
COc1cccc(NC(=O)CCC2CCN(C(=O)Cc3cccc(F)c3)CC2)c1 | -8.5 | -1.4 | 0.0% | 0.3 | -19.7 | -25.8
Cn1ncc2c(Nc3cccc(Cl)c3)nc(Nc3cccc(Cl)c3)nc21 | -4.7 | 0.9 | -1.5% | 3.1 | 24.1 | -3.9
COC(=O)/C(=C/c1ccc2c(c1)c1ccccc1n2C)NC(=O)c1ccccc1 | -3.8 | 0.8 | -0.5% | 0.7 | -1.6 | -4.8
COc1ccc(NC(=O)CSc2nnc(-c3ccncc3)n2C)cc1 | -3.4 | -0.5 | 0.7% | 0.0 | -13.0 | -4.7
CC(=O)Nc1ccc(NC(=O)c2ccc(NS(=O)(=O)c3cccc4cccnc34)cc2)cc1 | -3.1 | 2.0 | 2.3% | -0.5 | 11.5 | -3.5
O=C1c2cccc3c(Nc4ccccc4Cl)c([N+](=O)[O-])cc(c23)C(=O)N1CCO | -23.8 | -6.7 | 1.7% | 3.4 | 2.3 | ?
COc1cccc(CNC(=O)CN2C(=O)CSc3ccc(S(=O)(=O)N4CCOCC4)cc32)c1 | -3.5 | 0.2 | 0.7% | 0.0 | -13.1 | 4.0
CC(C)Cn1c(N)c(C(=O)COC(=O)c2ccc(O)cc2O)c(=O)n(C)c1=O | 28.7 | 1.8 | -1.7% | -0.2 | 6.5 | -6.6
Nc1ccc(-c2cc3ccccc3oc2=O)cc1 | -5.8 | 5.8 | 1.8% | 0.5 | 25.8 | 1.7
CSc1ccccc1NC(=O)CN1CCN(c2ccccn2)CC1 | -9.7 | 6.5 | -0.3% | 4.4 | -3.5 | 5.2
O=C(Nc1ccc(F)c(Cl)c1)Nc1csc2ccccc12 | -19.6 | 11.2 | ? | -0.1 | -8.7 | 1.2
COc1ccc2nc(C(F)(F)Cl)c(C#N)c(N)c2c1 | -21.1 | -0.3 | 1.9% | -0.6 | 0.0 | -6.8
O=C(CSc1nnc(-c2ccccc2O)o1)Oc1ccc(Br)cc1 | 2.6 | -0.3 | -2.0%[38.3 µM] | 1.6 | 6.8 | -1.7
CCN(CC)c1ccc2cc(C#N)c(=O)oc2c1 | -6.2 | -1.1 | ? | 17.8 | 7.1 | 7.1
Cc1cnc(NC(=O)CSc2nnc(-c3cccs3)n2C)s1 | -5.1 | 1.5 | 0.9% | 0.3 | -11.9 | -2.3
COc1ccc(CCNC(=O)COc2cc(=O)n(C)c3ccccc23)cc1OC | 1.5 | 0.7 | 2.2% | -0.7 | -4.0 | 0.0
Cc1ccc2oc(-c3cc(NC(=O)c4ncn[nH]4)ccc3O)nc2c1 | 3.5 | -0.7 | 9.7% | -0.1 | 5.6 | -12.3
O=C(O)c1cccnc1SCc1cn2cc(Cl)ccc2n1 | -3.3 | -6.1 | 2.4% | -0.1 | -8.0 | 6.0
CCOC(=O)N1CCC(NC(=O)c2ccc3c(=O)n4c(nc3c2)CCCC4)CC1 | 1.4 | -1.2 | 2.4% | 1.3 | 11.0 | -3.0
COc1cc(OC)cc(-c2nc3nc(C)c(CCC(=O)Nc4ccc(C)cc4C)c(C)n3n2)c1 | nt | nt | 1.9% | -0.7 | 2.5 | nt
CCN(CC)c1ncc(C#N)c(N)n1 | -9.2 | 5.2 | 1.0% | 0.6 | 7.2 | -2.7
O=C(Nc1nnc(-c2ccccc2F)s1)C1CCN(S(=O)(=O)c2ccc(Cl)cc2)CC1 | -2.0 | 2.2 | 6.5% | -0.1 | -3.4 | 9.9
NC(=O)C1=C[C@@H](c2ccc(C(F)(F)F)cc2)C[C@@H](OCCCCO)O1 | -11.5 | 1.4 | 0.3% | -0.9 | 24.1 | 4.8
Cn1cc(Br)c(C(=O)NNC(=O)c2ccc(Br)cc2)n1 | -6.8 | -1.8 | -1.5% | 0.9 | -2.9 | 3.6
NC(=O)c1c(NC(NC(=O)c2ccco2)C(=O)c2ccc(Cl)cc2)sc2c1CCCC2 (stereo unspecified) | -30.1 | -4.9 | -3.5%[38.3 µM] | -0.5 | 7.6 | -16.6
More structures follow:
SMILES | D2 potentiator | D2 agonist | PINK1 modulator | TRPML1 ag | TRPML1 inh | Six1-Eya2 inh
CCOC(=O)C1=C(C)NC2=C(C(=O)CC(c3cccs3)C2)C1c1cccs1 (stereo unspecified) | -33.1 | -7.9 | 5.0% | -0.4 | 13.0 | 12.0
Cc1ccc(-n2c(=O)c3sccc3n(CC(=O)N3CCCC3)c2=O)cc1 | 10.6 | -3.2 | 5.0%[38.3 µM] | 0.2 | -11.3 | 1.9
COCCCNC(=S)Nc1ccc(C)cc1 | -18.4 | -4.4 | 3.6% | -0.7 | -4.4 | 2.4
Cn1ncc([N+](=O)[O-])c1C(=O)Nc1cc(Cl)ccc1Cl | -2.5 | 8.7 | 1.9% | 0.4 | 0.7 | -13.1
COc1ccc(CCNC(=O)NCc2noc3ccc(C)cc23)c(OC)c1 | nt | nt | -0.6% | 3.4 | 40.3 | nt
N#CCCN(C(=O)COC(=O)C1CCN(S(=O)(=O)c2ccccc2C(F)(F)F)CC1)c1ccccc1 | -1.2 | 5.6 | 0.4% | 3.0 | 28.0 | 2.1
Cc1c(O)nc(SC2CC(=O)N(c3ccccc3)C2=O)[nH]c1=O (stereo unspecified) | -4.5 | -2.8 | 2.4% | 0.6 | -2.2 | 4.6
CC(=O)Nc1nonc1-c1ccccc1 | -0.9 | -3.1 | 0.3% | 0.4 | 12.1 | 3.5
Cc1cc(C)nc(NS(=O)(=O)c2ccc(NC(=O)c3ccc4c(c3)OCO4)cc2)n1 | 3.9 | -1.3 | 1.3% | 1.0 | 12.0 | -1.7
O=C(Nc1cc(Cl)cc(Cl)c1)c1cnn2cccnc12 | 3.1 | -1.7 | 0.2% | -0.4 | 9.3 | -3.5
FC(F)(F)c1cccc(-c2nn[nH]n2)c1 | 1.3 | -2.7 | -0.6% | 1.0 | -11.8 | 1.1
CCOc1ccc(CC(=O)N2CCN=C2SC)cc1 | -9.6 | 5.7 | 0.6% | -0.4 | 1.0 | -6.3
CCC(C(=O)OCC(=O)N1CCN(S(=O)(=O)c2ccc(C)cc2C)CC1)c1ccccc1 (stereo unspecified) | -13.8 | -4.4 | 2.1% | 5.7 | 56.3 | -3.6
O=C(O)c1cc(Nc2cc(Cl)c3nonc3c2[N+](=O)[O-])ccc1O | -9.5 | -4.6 | 2.9% | 0.4 | -11.1 | -79.3*
CCCc1ccc(S(=O)(=O)N2CCC(Oc3ccc(-n4cnnn4)cc3)CC2)cc1 | nt | nt | 10.5% | -0.2 | -1.3 | nt
COc1ccc2nc(Cl)c(/C=N/Nc3ccccn3)cc2c1 | 0.8 | -23.3 | 9.6% | -0.1 | 7.5 | -0.2
CN(C(=O)c1ccc(=O)n(Cc2ccc(Cl)cc2)c1)c1ccccc1 | 0.1 | 2.3 | 5.1% | -0.5 | -15.7 | 9.9
N/C(=N\OC(=O)COc1ccc(Cl)cc1Cl)c1ccncc1 | -19.9 | -0.9 | 2.0% | 0.5 | 36.4 | 9.4
CCOc1ccccc1NC(=O)Cn1c(=O)n(Cc2ccc(OC)cc2)c(=O)c2oc3ccccc3c21 | nt | nt | 1.5% | 0.5 | -8.6 | nt
CC[C@H](C)NC(=O)c1ccc(Cn2c(=S)[nH]c3c([nH]c4ccc(OC)cc43)c2=O)cc1 | -14.0 | 0.9 | -2.1% | 1.4 | 2.5 | -11.4
CSc1ccc(S(=O)(=O)NC2CCCCC2)cc1 | -9.4 | -1.8 | 11.0%[38.3 µM] | -0.5 | -21.4 | 3.8
CCOC(=O)CSc1n[nH]c(NC(=O)CC)n1 | -1.7 | 1.9 | -0.7% | -0.2 | -13.3 | 1.1
O=C(COc1ncnc2c(Cl)cc(Cl)cc12)NC1CCCCCC1 | -0.9 | 1.5 | 0.6% | -0.2 | -6.4 | 5.8
CC1(C)CN2C(=O)c3ccccc3C2(C)S1 (stereo unspecified) | 3.0 | -1.6 | 0.5% | 0.3 | 60.3 | -0.3
CC1(C)CC(=NNC(=O)c2n[nH]c3c2CCC3)CC(C)(C)N1 | -4.0 | 1.0 | 2.5% | 1.8 | 4.0 | 0.0

Ordered by the number under Six1-Eya2 inh (highest first): four of the compounds above.
| mol | D2 potentiator | D2 agonist | PINK1 modulator | TRPML1 inh | Six1-Eya2 inh |
| --- | --- | --- | --- | --- | --- |
| CC1(C)CC(=NNC(=O)c2n[nH]c3c2CCC3)CC(C)(C)N1 | -4.0 | 1.0 | 2.5% | 4.0 | 0.0 |
| CC1(C)CN2C(=O)c3ccccc3C2(C)S1 (stereo unspecified) | 3.0 | -1.6 | 0.5% | 60.3 | -0.3 |
| CC[C@H](C)NC(=O)c1ccc(Cn2c(=S)[nH]c3c([nH]c4ccc(OC)cc43)c2=O)cc1 | -14.0 | 0.9 | -2.1% | 2.5 | -11.4 |
| Cn1ncc([N+](=O)[O-])c1C(=O)Nc1cc(Cl)ccc1Cl | -2.5 | 8.7 | 1.9% | 0.7 | -13.1 |

Going on with the list.
SMILES | D2 potentiator | D2 agonist | PINK1 modulator | TRPML1 ag | TRPML1 inh | Six1-Eya2 inh
CCn1cc(C(=O)NCCc2ccccc2)c(=O)c2cc(S(=O)(=O)N(C)C3CCCCC3)ccc21 | nt | nt | 0.9% | -0.3 | 11.5 | nt
COc1ccc(Nc2ccc([N+](=O)[O-])c3nonc23)c(OC)c1 | -11.2 | -9.0 | 0.6% | 4.0 | 9.8 | -2.3
Cc1ccc(S(=O)(=O)N2CCN(C(=O)c3ccc(S(=O)(=O)N4CCCC4)cc3)CC2)cc1 | -4.8 | -4.1 | 0.0% | 0.4 | -1.7 | 6.1
Cc1cc(C)c(C)c(OCC(=O)N2CCOCC2)c1 | -8.8 | -4.6 | 0.0% | 0.3 | 2.2 | -4.8
Cc1cc(N=Cc2c(O)n(-c3cccc(Cl)c3)c(=O)c3ccccc23)no1 | 22.6 | 3.7 | 2.9% | 1.9 | 6.2 | -5.8
CC1=C(C(=O)N2CCCC(N3CCN(c4cccc(Cl)c4)CC3)C2)OCCO1 (stereo unspecified) | -23.8 | 2.0 | 2.6% | -0.5 | 4.5 | -5.3
COC(=O)C1=C(C(=O)OC)C(c2cc(Cl)ccc2O)c2sc(=O)[nH]c2S1 (stereo unspecified) | -13.6 | 1.4 | ? | 0.9 | -12.6 | -11.0
COc1ccc(Cc2nnc(N/N=C/c3ccc(N(C)C)cc3)[nH]c2=O)cc1OC | -2.2 | 1.9 | 2.0% | 1.7 | -7.0 | -12.2
O=S(=O)(c1ccc(-c2ccon2)s1)N1CCN(CCN2CCOCC2)CC1 | 4.5 | 1.9 | 0.9% | -0.3 | -0.2 | -2.5
O=[N+]([O-])c1ccccc1NS(=O)(=O)c1ccccc1 | -11.9 | 0.0 | -0.5% | -0.6 | 1.2 | -1.4
COc1cccc(NC(=O)CSC2=C(C#N)C(c3ccco3)C3=C(CCCC3=O)N2)c1 (stereo unspecified) | -20.1 | 1.3 | 5.2% | 0.6 | 6.5 | -16.6
N#Cc1nc(COc2ccc(Cl)cc2Cl)oc1N1CCOCC1 | -4.7 | -4.2 | 1.6%[38.3 µM] | 0.2 | -8.1 | -24.6
CCN(CC)S(=O)(=O)c1ccc(C(=O)Nc2nnc(CSC)o2)cc1 | -5.7 | -1.0 | 0.3% | -0.2 | -11.0 | 4.9
